Screening data: PubChem BioAssay, National Center for Advancing Translational Sciences (NCATS)
StopGo RLuc = FMDV 2A StopGo reporter, Renilla signal; HEK cells with a luciferase reporter of 2A StopGo recoding; Potency, µM (titrated, usually from 57.5 µM), for inactives: at the highest dose signal change, negative = less light; 0.32% of 120,000 active; AID 1745857; active means well fitted falling curve with a large enough effect; inconclusive means small, poorly fitted or top-dose-only effect; inactive means no such curve, though single readings can be large or run the other way; further: nearly all actives have a fitted effect of over 55% in size; overnight with compound
StopGo FLuc = FMDV 2A StopGo reporter, firefly signal; Potency, µM (titrated, usually from 57.5 µM), for inactives: at the top dose signal change, negative = less light; HEK cells with a luciferase reporter of 2A StopGo recoding; AID 1745856; 0.23% of 120,000 active; active = well fitted falling curve with a large enough effect; inconclusive = small, poorly fitted or top-dose-only effect; inactive = no such curve, though single readings can be large or run the other way; further: nearly all actives have a fitted effect of over 60% in size; overnight with compound
* hit, by the source's call; ? = inconclusive; & = joins results of further samples; [ ] = another dose, or the depositor's remark. On the % scale 0 is the no-effect control and ±100 the full control effect; potency means the concentration at half of the fitted maximal effect.

mol,StopGo RLuc,StopGo FLuc
CCC1=Nc2cc(C(=O)NC3CCCC3)ccc2Sc2ccc(Cl)cc21,23%,-12%
CCC1c2cccn2-c2ccccc2CN1C(=O)Nc1cc(F)ccc1F (stereo not given),12%,-10%
COc1ccc(-c2cc(NC(=O)c3cccs3)n(C3CCS(=O)(=O)C3)n2)cc1 (stereo not given),23%,78%[activator]
CC(C)C[C@H](N)c1nnc(SCc2ccc(Cl)cc2Cl)o1,-6%,-11%
CCCCCn1nc(C(=O)Nc2cc(C)cc(C)c2)c2ccccc2c1=O,3%,1%
O=S(=O)(c1cc(F)ccc1F)N1CCN(C23CC4CC(CC(C4)C2)C3)CC1,-10%,-5%
COc1ccc2[nH]cc(CCNC(=O)c3cc(F)ccc3F)c2c1,30%,29%
CCOC(=O)c1cc(-c2ccc(OC)c(S(=O)(=O)NC3CCCCC3)c2)on1,69%[activator],-3%
CNC(=O)NC(=O)C(c1ccccc1)N(C)Cc1ccccc1 (stereo not given),5%,12%
CCOC(=O)c1c(NC(=O)c2cc(C)on2)sc(C)c1C,-9%,-11%
CCOc1ccc(CN2C(=O)c3ccccc3Sc3ccc(C(=O)OC)cc32)cc1,-11%,-21%
COc1ccc(NC(=O)CCOc2cc(C)ccc2C)cc1Cl,21%,19%
CC(C)N(C)S(=O)(=O)c1ccc(Cl)c(C(=O)N2CCCC2C(=O)O)c1 (stereo not given),-6%,-3%
CC(NC(=O)Cc1csc2nc(-c3ccccc3)cn12)c1ccc(S(C)(=O)=O)cc1 (stereo not given),-16%,-8%
CCc1cccc(CC)c1-n1nnc2c(sc3nc(C)cc(C)c32)c1=O,-13%,-17%
CCn1ccc2cc(S(=O)(=O)N3CCCN(C(=O)Nc4ccc(C)c(F)c4)CC3)ccc21,97%[activator],62%[activator]
NC(=S)N/N=C/c1ccccc1Cl,-9%,49%[activator]
CCOc1ccccc1Oc1coc2cc(OCC(=O)NCC3CCC(C(=O)O)CC3)ccc2c1=O (stereo not given),1%,-1%
CCc1cccc2c(C(=O)O)cc(-c3ccccn3)nc12,-4%,-8%
CC1=C(C(=O)O)N2C(=O)[C@@H](NC(=O)[C@H](N)c3ccccc3)[C@H]2SC1,-12%,-11%
CC(C)NC(=O)CCNC(=O)N1CCn2c1nc1ccccc12,-18%,19%
CCCc1cc(=O)oc2c(C)c(OCC(=O)NCCCN(C)C)ccc12,-9%,-5%
CC(=O)Nc1ccc(NC(=O)c2cc(=O)c(OCc3ccccc3F)co2)cc1,0%,9%
COc1cc(Cl)c(C)cc1NC(=O)CSc1nnc(CN2CCCC2)n1-c1ccccc1,-8%,-14%
Cc1ccc(F)c(NC(=O)c2nn(C)cc2Br)c1,5%,145%[activator]

More entries.
mol,StopGo RLuc,StopGo FLuc
CCCCn1nc(C(=O)NCCNS(=O)(=O)c2cc(C)ccc2C)c2ccccc2c1=O,120%[activator],-13%
Cc1cc(S(=O)(=O)NCC(c2ccco2)S(=O)(=O)c2cccs2)ccc1F (stereo not given),315%[activator],-2%
O=C(NCc1ccccc1Cl)c1ccc(Nc2nc3ccccc3n3nnnc23)cc1,0%,18%
CC(C)CN1CCc2nc(N3CCN(C)CC3)ncc2C1,-6%,14%
O=C(CSc1nc2nc[nH]c2c(=O)[nH]1)NCc1ccc(F)cc1,-7%,3%
O=C(c1ccco1)c1cn(CCOc2ccc(Cl)cc2)c2ccccc12,-17%,-16%
Cc1ccccc1Nc1nc(CSc2nnc3n2CCCCC3)cs1,5%,73%[activator]
c1ccc(-c2cn[nH]c2)cc1,-14%,6%
CCOc1ccc(/C=C/C(=O)c2cccc(O)c2)cc1,-17%,36%[activator]
NC(N)=Nc1nc(-c2ccccc2)c2ccccc2n1,0%,19%
CC(NC(=O)CNC(=O)OCc1ccccc1)C(=O)NCC(=O)O (stereo not given),4%,2%
C(=C\c1cccs1)/c1ccc2ccccc2n1,-1%,-3%
CCOC(=O)c1cccc(NC(=O)NCc2cccn2Cc2ccccc2)c1,0%,1%
COc1cccc(S(=O)(=O)Nc2c(NC3CCCCC3)c3ccccc3oc2=O)c1,-4%,2%
S=C(NCCc1ccccc1)NC1CCCC1,10%,97%[activator]
C=C(C)CN1CCN(CCO)CC1,5%,0%
COc1ccc(C(C)=O)cc1CN(C)CC12CC3CC(CC(C3)C1)C2,6%,1%
CCOC(=O)C1CCN(C(=O)CSc2n[nH]c(-c3ccccc3)n2)CC1,24%,6%
O=C(Nc1ccc(C23CC4CC(CC(C4)C2)C3)cc1)c1cccc(Cl)c1,-2%,0.35µM*
COc1ccccc1OCC(=O)Nc1cc(-c2ccc(F)c(F)c2)no1,2%,27%
CCc1ccccc1NC(=O)Cn1c(=O)n(-c2cccc(C)c2)c(=O)c2c1c1cc(OC)ccc1n2C,-10%,-13%
COc1cccc(-c2nc(C#N)c(N3CCN(C(=O)c4cccs4)CC3)o2)c1,-4%,20%
CCN(CC)CCCNC(=O)CSc1nc2nc(C)c(Cc3c(F)cccc3Cl)c(C)n2n1,-20%,-23%
COc1ccc(NC(=O)C(Sc2nnc(-c3ccco3)n2N)c2ccccc2)cc1Cl (stereo not given),126%[activator],38%[activator]
CCn1nc(C(=O)Nc2ccc(OC)c(OCCOC)c2)c2ccccc2c1=O,66%[activator],81%[activator]

Further entries follow:
mol,StopGo RLuc,StopGo FLuc
CN(Cc1ccc(C(=O)NCC(F)(F)F)cc1)C(=O)c1ccc(F)cc1,-10%,-1%
CCCOc1ccc(CN(C(=O)Cc2coc3ccc(CC)cc23)C2CCS(=O)(=O)C2)cc1 (stereo not given),2%&0%,-7%&-16%
O=C(O)CNS(=O)(=O)c1cccc(F)c1,0%,23%
COc1ccc(-c2nc(CN3CCCC3c3cc(C)no3)co2)cc1 (stereo not given),9%,130%[activator]
CCOC(=O)Cc1ccc(NC(=O)Nc2ccccc2OCc2cc(=O)n3ccccc3n2)cc1,-9%,1%
CCC(CO)Nc1nc2c(c(=O)n(C)c(=O)n2C)n1Cc1c(F)cccc1Cl (stereo not given),-14%,-15%
O=S(Cc1ccc(F)cc1)Cc1ccc(Cl)cc1 (stereo not given),11%[1.06 µM],14%
O=c1c2ccccc2cnn1CN1CCN(S(=O)(=O)c2c(Cl)cccc2Cl)CC1,0%,17%
CC(C)N(C(=O)Cn1cc(S(=O)(=O)Cc2ccc(Cl)cc2)c2ccccc21)C(C)C,-4%,0%
COCc1cc(C)nc2c1C(=O)NC(c1ccc(Br)cc1)N2Cc1ccccc1 (stereo not given),-10%,-15%
O/N=C/c1cn(-c2ccccc2)nc1-c1ccncc1,-2%,13%
COc1ccccc1NC(=O)Cn1c(=O)oc2cc(S(=O)(=O)NCc3ccccc3)ccc21,148%[activator],?
N#Cc1c(NC(=O)c2cc(=O)c3ccccc3o2)sc2c1CCCC2,1%,138%[activator]
CCn1c(C)cc(C(=O)CSc2nc3cc(S(N)(=O)=O)ccc3n2C)c1C,-6%,0%
COc1cccc(C(=O)Nc2nc3c(s2)CCCC3)c1,-6%,100%[activator]
CCn1c(SCC(=O)NCC(F)(F)F)nnc1-c1ccncc1,-11%,-5%
O=C(O)c1ccc(/C=C/c2ccc3ccccc3n2)cc1,-7%,68%[activator]
COc1ccc(C(=O)Nc2nc(-c3nnn(-c4ccc(F)cc4F)c3C)ns2)cc1,15%,43%[activator]
CCCCNC(=O)c1cc(-c2ccc(OC)cc2)nc2n[nH]c(-c3cccc([N+](=O)[O-])c3)c12,4%,-7%
Cc1ccc(NC(=O)C2CCCN(S(=O)(=O)c3ccc(F)cc3)C2)cc1 (stereo not given),-14%,-22%
COc1ccccc1CNC(=O)CCc1c(C)c2ccc(OC)c(C)c2oc1=O,-11%,-7%
COc1cc(C(=O)Nc2ccc3c(c2)nc2n3CCN(C(C)C)C2)cc(OC)c1OC,25%,-1%
COC(=O)N/N=C/c1ccccc1OCC(=O)O,-1%,14%
C=C(C)CN1CCN(c2nc3c(c(=O)[nH]c(=O)n3C)n2Cc2cccc(Cl)c2)CC1,-5%,1%
O=C(c1ccc2c(c1)OCO2)N(Cc1ccccc1)Cc1ccccc1,75%[activator],2%

(listing goes on)
mol,StopGo RLuc,StopGo FLuc
c1ccc(CNC2C3CC4CC(C3)CC2C4)nc1 (stereo not given),-1%,0%
Cc1ccc2nc(C)c(C(=O)N3CCN(S(=O)(=O)c4ccc(F)cc4)CC3)cc2c1,3%,-8%
O=C(c1ccc(F)cc1)N1c2ncnn2C2(CCCCC2)[C@@H]2CCCC[C@@H]21,-7%,-13%
CCOC(=O)C1=C(Nc2ccccc2)O/C(=C\c2ccc(OC(F)F)cc2OC(F)F)C1=O,?,10µM*
COCC(C)n1c(C)cc(C(=O)Cn2cnc3scc(-c4ccc(C)cc4)c3c2=O)c1C (stereo not given),-2%,8%
CCOc1ccc(NC(=O)c2cc3c(C)nn(-c4ccccc4)c3s2)cc1,-8%,-12%
Cn1c(=O)c2c(nc(CN3CCN(CCO)CC3)n2CCCO)n(C)c1=O,-6%,-3%
Cc1cc(N2CCCCC2)nc2ccc(NC(=O)c3ccc(F)cc3)cc12,3%,17%
CC(=O)c1cccc(NC(=O)Cc2c(C)c3c(O)cc(C)cc3oc2=O)c1,-6%,-7%
Cc1cccc(-n2nnnc2C2(Nc3ccccc3)CCCCC2)c1,276%[activator],25%
COc1ccc2c(c1)c(C(C(=O)O)N1CCN(C(C)=O)CC1)cn2CCC(=O)O (stereo not given),-2%,5%
CCOc1ccccc1NC(=O)CSc1cn(CC(=O)N2CCCCCC2)c2ccccc12,-8%,-10%
CC(=O)NC(C(=O)Nc1ccc(SC2CCCC2)cc1)C(C)C (stereo not given),43%[activator],51%[activator]
CCN1CCN(c2nc3nnnn3c3sc4c(c23)CCN(Cc2ccccc2)C4)CC1,-14%,-5%
CC1=C(C(=O)Nc2ccccc2C)C(c2ccncc2)n2nc(SCc3ccccc3)nc2N1 (stereo not given),-12%,-15%
O=CNc1ccc(O)cc1,16%,0%
CCCc1cc(=O)oc2c(C)c(OCC(=O)OC(C)C)ccc12,9%,9%
CNC(=O)NC(=O)CSc1cc(C)c2ccccc2n1,2%,4%
CCn1c(CN2CCOCC2)nc2cc(NC(=O)c3ccc([N+](=O)[O-])cc3)ccc21,13%,24%
CC1=C(C(=O)Nc2ccc(C)cc2C)C(c2ccccc2C)n2ncnc2N1 (stereo not given),-12%,-11%
Cc1cc(C)c2c(n1)SCC(=O)N2CC(=O)Nc1c(C)cccc1C,-8%,-5%
NC(=O)c1ccc(NC(=O)Cn2ccc3cc(Cl)ccc32)cc1,66%[activator],23%
Cc1cc(OCC(=O)NCCCN2CCCC2=O)c2c(C)cc(=O)oc2c1,2%,2%
CC(C)(C)c1ccc(/C=N/NC(=O)Cc2ccc(Br)cc2)cc1,10%,11%
O=C(O)COc1ccccc1,-10%,11%[11.5 µM]

Arranged by length of the SMILES (lowest first): 13 of the compounds above
mol,StopGo RLuc,StopGo FLuc
O=CNc1ccc(O)cc1,16%,0%
O=C(O)COc1ccccc1,-10%,11%[11.5 µM]
c1ccc(CNC2C3CC4CC(C3)CC2C4)nc1 (stereo not given),-1%,0%
Cc1cccc(-n2nnnc2C2(Nc3ccccc3)CCCCC2)c1,276%[activator],25%
CC(=O)NC(C(=O)Nc1ccc(SC2CCCC2)cc1)C(C)C (stereo not given),43%[activator],51%[activator]
CC(C)(C)c1ccc(/C=N/NC(=O)Cc2ccc(Br)cc2)cc1,10%,11%
Cc1cc(C)c2c(n1)SCC(=O)N2CC(=O)Nc1c(C)cccc1C,-8%,-5%
Cc1cc(OCC(=O)NCCCN2CCCC2=O)c2c(C)cc(=O)oc2c1,2%,2%
CC1=C(C(=O)Nc2ccc(C)cc2C)C(c2ccccc2C)n2ncnc2N1 (stereo not given),-12%,-11%
CCOc1ccccc1NC(=O)CSc1cn(CC(=O)N2CCCCCC2)c2ccccc12,-8%,-10%
COc1ccc2c(c1)c(C(C(=O)O)N1CCN(C(C)=O)CC1)cn2CCC(=O)O (stereo not given),-2%,5%
O=C(c1ccc(F)cc1)N1c2ncnn2C2(CCCCC2)[C@@H]2CCCC[C@@H]21,-7%,-13%
COCC(C)n1c(C)cc(C(=O)Cn2cnc3scc(-c4ccc(C)cc4)c3c2=O)c1C (stereo not given),-2%,8%

Additional entries:
mol,StopGo RLuc,StopGo FLuc
CCOC(=O)c1cc(-c2ccccc2)n(CCC(=O)Nc2nc3c(C)cccc3s2)c1C,-14%,-15%
COc1ccc(-c2nc(C#N)c(NCc3ccc4c(c3)OCO4)o2)cc1,165%[activator],227%[activator]
O=C1CN(C(=O)c2ccc(S(=O)(=O)N3CCCC3)cc2)C(c2ccc(F)cc2)c2cc(Br)ccc2N1 (stereo not given),9%,-15%
O=C(CC1N=C2c3ccccc3N=C(SCc3ccc(F)cc3)N2C1=O)NCc1cccs1 (stereo not given),-12%,-16%
CCn1c(SCc2ccc(F)cc2Cl)nnc1-c1cnccn1,-4%,6%
CC(CNC(=O)c1ccc2cc[nH]c2c1)c1ccccc1 (stereo not given),44%[activator],193%[activator]

Random draw from the library; about 0.55% have a hit in one of these screens.
